# Calb FLC – C. albicans growth modulation with fluconazole; C. albicans CaCi-2 (fluconazole-resistant clinical isolate) + fluconazole, Alamar Blue growth, 48 h; growth inhibition, % (no concentration beside the values); 300,000 compounds, 0.57% hits; AID 1979;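 active means most replicates above 75%; inconclusive means exactly half above 75%; inactive means most below 75%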;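 further: all wells also contain fluconazole at 8 µg/ml as a sub-toxic cotreatment; 0% = median of DMSO wells and 100% = median of geldanamycin control wells; wells of about 8 µL received 7.5 nL stock; the first replicate is given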
# B2AR ag – agonists of human beta-2 adrenergic receptor inducing internalization | P07550 | Am2.2-beta2AR cells, FAP receptor internalization, flow cytometry; reference of the scale not given here | response, % (concentration not given with the values) | 340,000 compounds, 0.43% hits | AID 504454;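 active means response above a set limit, near 3 SD of response in nonfluorescent compounds, cut at about 42% in these data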;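 further: stock transfer was 100 nL into about 11 µL; a reference agonist was the positive control; negative values mostly stem from fluorescent compounds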
# Target sequence (P07550 whole entry, looked up): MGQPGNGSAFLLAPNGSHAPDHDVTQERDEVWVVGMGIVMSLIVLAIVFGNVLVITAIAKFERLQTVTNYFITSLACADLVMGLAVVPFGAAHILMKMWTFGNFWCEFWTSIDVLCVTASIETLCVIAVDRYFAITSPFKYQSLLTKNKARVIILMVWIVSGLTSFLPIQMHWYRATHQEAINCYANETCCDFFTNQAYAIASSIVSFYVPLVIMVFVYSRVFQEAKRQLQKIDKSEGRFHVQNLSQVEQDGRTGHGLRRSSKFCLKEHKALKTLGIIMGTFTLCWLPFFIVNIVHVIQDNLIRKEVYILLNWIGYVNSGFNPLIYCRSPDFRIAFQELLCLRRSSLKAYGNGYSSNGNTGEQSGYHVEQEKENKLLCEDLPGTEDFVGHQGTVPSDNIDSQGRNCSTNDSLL
# Ecoli rRNA inh – selective bacterial rRNA inhibition in E. coli; GFP signal change (wild-type ribosome), % (no concentration beside the values); AID 720706; 350,000 compounds, 1.6% hits; E. coli WT GFP vs humanized-ribosome RFP mutants, fluorescence, 24 h; hits give low values; DMSO median 0, no signal -100;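 active means significant combined selectivity score with lowered wild-type GFP, culture density cut under 30%, mutant RFP and density less affected; inactive means any of these conditions unmet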; further: one replicate is shown; some compounds called inactive have numbers as strong as hits
# T cruzi inh – T. cruzi replication inhibition; T. cruzi beta-gal in NIH3T3, luminescence, 90 h; inhibition, % (test concentration not listed); 300,000 compounds, 1.4% hits; AID 1885;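 active means mean inhibition across valid replicates above about 55%, limit read from the data; inconclusive means mean below that limit but half or more replicates reach it; inactive means mean below it, under half of replicates reach it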;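 further: signal also drops with host cell toxicity which is not excluded here; 0% = plate median of DMSO wells and 100% = zero luminescence signal; higher percent means less beta-gal luminescence so fewer parasites; stock transfer was 50 nL into about 50 µL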
# ALR inh – human ALR oxidase inhibition via reduced H2O2. inhibition, % (no concentration beside the values). AID 485317. 290,000 compounds, 3.8% hits. purified ALR, DTT oxidation, H2O2 HRP-luminol luminescence;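 active means mean and each replicate at 75% or more; inconclusive means only one of the two met; inactive means neither met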;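 further: stock transfer was 7.5 nL into about 7.5 µL; 0% = neutral wells and 100% = wells with inactivated enzyme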
# Target sequence (P55789 whole entry, looked up): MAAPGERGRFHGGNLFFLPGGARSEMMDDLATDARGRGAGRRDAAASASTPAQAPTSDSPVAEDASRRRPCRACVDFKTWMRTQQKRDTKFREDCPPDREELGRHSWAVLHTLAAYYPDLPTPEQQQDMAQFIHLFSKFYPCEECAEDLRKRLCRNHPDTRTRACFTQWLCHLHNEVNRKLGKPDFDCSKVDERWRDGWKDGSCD
# LANA-H2A inh – blocks KSHV LANA binding to histone H2A/H2B. AID 2629. inhibition, % (concentration not given with the values). 320,000 compounds, 0.6% hits. Q9QR71. cell-free LANA-H2A/H2B peptide, fluorescence polarization; in the data active means inhibition mostly above about 10%, no sharp cut-off; inactive means mostly below about 6.7%;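 further: stock transfer was 7.5 nL into about 10 µL; 0% = median of vehicle wells and 100% = median of positive control wells; one replicate is shown; the record names a cut of 25% in any replicate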
# Beta apoptosis – blocks beta cell apoptosis | 300,000 compounds, 0.8% hits | INS-1E cytokine-induced death, ATP luminescence, 48 h; percent of positive-control rescue, neutral wells zero | protection from apoptosis, % (no concentration beside the values);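 active means all replicates at 75% or more, or half of them and the mean; inconclusive means half reach 75% but not the mean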;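 further: 0% = cytokine-treated negative control wells and 100% = positive control rescue; higher means more ATP so stronger rescue from cytokine killing; wells of about 40 µL received 100 nL stock; the first replicate is given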
# Bfl-1 A1 inh – inhibitors of the anti-apoptotic protein A1, read as caspase activation; MEF A1-2A-BIM cells, Caspase-Glo 3/7 luminescence, 3 h; percent of clofoctol response, vehicle zero; caspase activation, % (test concentration not listed); 330,000 compounds, 0.066% hits;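 active means over half of replicate activation scores above 10%, or exactly half above 10 with the replicate mean above 10; inconclusive means replicate mean below 10 yet half the replicates above 10; inactive means over half of replicates below 10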;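 further: wells of about 30 µL received 50 nL stock; many hits fall short of the cut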
# Ecoli rRNA inh OD600 – second read-out of Ecoli rRNA inh, no call of its own (marks repeat the call); OD600 change, %; measured here: OD600 growth;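 optical density of the mix in the first replicate; 0 = DMSO median and -100 = no signal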
# Ecoli rRNA inh RFP – recorded beside Ecoli rRNA inh, whose call it bears; RFP signal change, %; measured here: RFP humanized mutant strains;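 first replicate; 0 = DMSO median and -100 = no signal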
# Numbers without * were called inactive; u = inconclusive; x = not tested or not shown. Only part of the results is shown; count on the stated rates, not on these rows.
SMILES	Calb FLC	B2AR ag	Ecoli rRNA inh	Ecoli rRNA inh OD600	Ecoli rRNA inh RFP	T cruzi inh	ALR inh	LANA-H2A inh	Beta apoptosis	Bfl-1 A1 inh
CN1C(=O)C(O)(CC(=O)/C=C/c2ccco2)c2cc(Br)ccc21 (stereo unspecified)	-32	0	0	-5	8.0	-28	-4	1.3	-6	0.0
COc1ccc(CC(=O)NCC(C)(C)N2CCOCC2)cc1	-12	0	8	10	3.8	3	-3	-8.4	-6	0.6
CC(=O)Nc1ccc(S(=O)(=O)N(C)c2ccc(OCC(=O)OCC(=O)NCc3ccco3)cc2)cc1	-2	-2	9	0	0.6	-8	2	-5.1	-8	0.0
CC(=O)c1cccc(NC(=O)c2ccc(S(=O)(=O)N3CC(C)OC(C)C3)cc2)c1 (stereo unspecified)	x	3	5	14	-2.3	x	-1	8.8	4	2.0
COc1ccccc1CNC(=O)CN(C)S(=O)(=O)c1ccc2c(c1)n(C)c(=O)c(=O)n2C	-7	-3	12	0	0.2	-5	-2	-4.7	-7	0.5
CCc1ccc(C2=Nn3c(nnc3-c3cccs3)SC2)cc1	28	-22	x	x	x	39	-12	1.2	1	0.0
Cc1cc(C)c2c(c1)/C(=N/NS(=O)(=O)c1ccccc1)CCC2	3	3	x	x	x	-4	-2	-2.7	-6	-0.2
CCC(=O)c1ccc(OCC(O)Cn2nnc3ccccc32)cc1 (stereo unspecified)	7	-1	-4	-10	2.2	-11	-18	-0.5	0	-1.3
O=C(NC1CCCC1)C(c1ccccc1F)N(C(=O)Cc1cccs1)c1ccc2c(c1)OCCO2 (stereo unspecified)	29	12	-16	-13	-1.3	9	x	-2.6	-7	0.3
CN(Cc1ccccc1)S(=O)(=O)c1ccc(OCC(=O)Nc2cccc([N+](=O)[O-])c2)cc1	-25	15	-1	5	-4.7	-7	3	-2.7	-9	1.1
CSc1nc2ccccc2c(=O)n1Cc1ccc(F)cc1	6	2	-4	-1	-2.4	19	2	-7.0	-8	1.3
Cc1cc(C)n2nc(-c3ccsc3-n3c(C)ccc3C)cc2n1	-5	1	x	x	x	55*	10	1.9	3	0.0
Cc1cc(C(=O)N/N=C/C=C/c2ccc([N+](=O)[O-])cc2)n[nH]1	33	9	0	2	1.3	-3	-4	0.7	-6	0.4
CC(C)CCNC(=S)Nc1ccc(Br)cc1	-48	-3	-55	-80	-38	9	x	x	5	-0.2
CCCCCn1c(N2CCOCC2)nc2c1c(=O)n(CC(N)=O)c(=O)n2C	-4	3	x	x	x	-17	-2	-6.2	2	0.0
CCCc1cc(C(=O)N2CCCN(C)CC2)cs1	x	-7	13	13	-0.1	17	-4	2.0	-10	0.1
O=C(O)CCCCCn1c(SCC(=O)Nc2ccc(F)cc2)nc2ccsc2c1=O	-2	10	2	3	-0.9	-4	-14	-2.1	2	-0.5
COc1ccccc1NC(=O)Cn1nnc(-c2ccccc2NC(=O)c2cc3ccccc3oc2=O)n1	-20	6	8	3	-1.3	-1	0	0.3	x	0.2
CCN(CCO)c1nc(SC)nc2c1sc1nc(-c3ccco3)c3c(c12)CCC3	1	20	x	x	x	-12	97*	0.4	-1	x
CC(=O)SC(C)CC(=O)NCc1ccccc1 (stereo unspecified)	-6	0	x	x	x	5	x	0.6	-11	0.0
Cc1cccc(CC2S/C(=N/N=C/c3ccco3)NC2=O)c1 (stereo unspecified)	56	-4	6	-2	-2.6	1	-14	-7.1	4	-0.8
CCCCc1nnc(NC(=O)CSc2nc(O)c(Cc3ccccc3)c(=O)[nH]2)s1	-4	-8	-4	2	0.3	2	99*	8.9	-1	-0.2
COc1ccc(N(CC(=O)NC2CCCC2)C(=O)CCC(=O)Nc2nc(C)cs2)cc1OC	0	-5	0	5	-0.1	-5	-42	4.4	-3	0.1
CCN(C(=O)COC(=O)c1ccc(COc2ccc3c(C)cc(=O)oc3c2)cc1)C1CCS(=O)(=O)C1 (stereo unspecified)	-4	-3	6	-10	-2.4	7	0	1.4	0	-2.5
Cc1cc(Cn2nc(C(=O)NCc3cccc(Br)c3)cc2-c2ccccc2)on1	x	-10	-16	-22	-9.8	x	x	-1.4	-14	-0.5
CCOC(=O)Nc1sc(C)c(C)c1C(N)=O	27	1	x	x	x	-11	-8	3.4	2	-0.6
COc1cc2c(cc1OC)-c1cc(NCc3ccccn3)nc(=O)n1CC2	-8	-15	x	x	x	-2	-4	1.7	5	1.0
CC(C)NC(=O)C1CCCN(S(=O)(=O)c2cccc3nonc23)C1 (stereo unspecified)	1	-5	10	18	0.0	x	x	-6.1	-6	-0.3
CC(=O)Nc1cccc(C(=O)Nc2cccc3ncccc23)c1	-4	11	2	8	0.5	3	-6	1.4	-4	-0.1
CC(C)OC(=O)CSc1nnc(SCc2cccc3ccccc23)s1	1	12	x	x	x	-1	-12	-4.8	0	0.8

# Looked up one by one from above (4):
SMILES	Calb FLC	B2AR ag	Ecoli rRNA inh	Ecoli rRNA inh OD600	Ecoli rRNA inh RFP	T cruzi inh	ALR inh	LANA-H2A inh	Beta apoptosis	Bfl-1 A1 inh
Cc1cccc(CC2S/C(=N/N=C/c3ccco3)NC2=O)c1 (stereo unspecified)	56	-4	6	-2	-2.6	1	-14	-7.1	4	-0.8
CCCCc1nnc(NC(=O)CSc2nc(O)c(Cc3ccccc3)c(=O)[nH]2)s1	-4	-8	-4	2	0.3	2	99*	8.9	-1	-0.2
CC(C)OC(=O)CSc1nnc(SCc2cccc3ccccc23)s1	1	12	x	x	x	-1	-12	-4.8	0	0.8
Cc1cc(Cn2nc(C(=O)NCc3cccc(Br)c3)cc2-c2ccccc2)on1	x	-10	-16	-22	-9.8	x	x	-1.4	-14	-0.5

# Next records follow:
SMILES	Calb FLC	B2AR ag	Ecoli rRNA inh	Ecoli rRNA inh OD600	Ecoli rRNA inh RFP	T cruzi inh	ALR inh	LANA-H2A inh	Beta apoptosis	Bfl-1 A1 inh
C[C@@H]1[C@H](O)C[C@@]23COC(=O)C2=CCC[C@@H]3[C@@]1(C)CC/C(=C/CO)CO	x	-9	0	7	-14	x	x	-2.7	0	0.0
COc1ccc(C(=O)CC(=O)C(=O)Nc2cc(C)ccc2C)cc1	-1	-5	6	-1	0.4	-5	-18	3.2	-4	1.1
Cc1cc(S(=O)(=O)NC(C)C)ccc1OCC(=O)N1CCOCC1	22	0	x	x	x	-2	4	-22	1	-0.1
COCCN(C(=O)COC(=O)/C=C/c1nc2ccccc2s1)c1c(N)n(Cc2ccccc2)c(=O)[nH]c1=O	6	1	-3	3	-0.1	-30	x	x	-19	-1.1
CCc1ccc(NC(=O)Cn2cnc([N+](=O)[O-])c2)cc1	-14	2	43	0	9.4	-4	-8	1.1	2	0.1
CC(C)(C)n1nnnc1C(c1ccc(C#N)cc1)N1CCCC2(CCCCC2)C1 (stereo unspecified)	19	-3	x	x	x	4	-3	-0.2	3	0.7
CCNC(=O)CC1C(=O)N(CC)C(=S)N1NC(=O)c1cccnc1 (stereo unspecified)	-4	2	13	14	2.9	-3	-2	-6.0	-4	0.1
CCCOc1ccc(-c2c(C(=O)N/N=C/c3cccs3)nnn2-c2nonc2N)cc1	3	-8	x	x	x	18	1	3.0	9	0.0
Cc1cccc(C)c1NC(=O)CNC(=O)CNC(=O)Cc1cccc2ccccc12	x	9	9	3	1.9	x	-1	-16	-5	-0.3
COc1ccc(S(=O)(=O)N2CCOCC2)cc1NC(=O)COC(=O)C1CC1C (stereo unspecified)	x	-7	x	x	x	x	3	-1.6	-3	-0.6
COc1cc(/C=C/C(=O)OCC(=O)NC2CCCCCCC2)ccc1O	x	11	-12	-31	-2.6	x	x	-15	-6	-0.2
CC(C)c1ccc(S(=O)(=O)c2cnc(=S)[nH]c2N)cc1	-2	0	10	2	-3.9	20	-6	-2.9	-3	1.2
COc1cccc(C(=O)Nc2ccc(NC(=O)C3CC=CCC3C(=O)O)cc2)c1 (stereo unspecified)	x	3	0	14	-1.6	-8	-3	2.6	-4	-0.4
O=c1cc(N2CCCCC2)c(-c2ccccc2)n[nH]1	-2	-3	-15	-23	-4.4	-7	-3	5.5	-3	-0.1
COc1cccc(/C(C)=N/NS(=O)(=O)c2ccc(Cl)cc2)c1	4	-3	-3	-10	-2.3	3	5	0.4	x	1.0
CN1CCN(C(=O)CSc2ccc(Cl)cc2)CC1	-3	-4	22	11	2.7	37	45	-1.7	-5	-0.7
O=C1CC(N2CCCc3ccccc32)C(=O)N1c1ccccc1Cl (stereo unspecified)	11	0	x	x	x	-19	22	-1.8	-8	0.4
COc1ccc(C(=O)C(O)C(c2ccc(C)cc2)N2CCOCC2)cc1OC (stereo unspecified)	3	-4	14	18	-0.7	-13	-10	-1.9	-5	0.2
O=C(NCCc1ccccc1)C1(S(=O)(=O)c2ccc(Cl)cc2)CC1	-4	-12	-26	-25	-9.2	-7	-12	2.8	1	1.6
CC(Sc1nc(N)c2c3c(sc2n1)CSC(C)(C)C3)C(=O)Nc1ccccc1 (stereo unspecified)	-4	4	x	x	x	34	x	-1.1	-31	1.6
CN1CCCN(C(=O)c2ccc(Br)s2)CC1	-4	7	4	9	-1.2	8	7	-2.1	x	-0.6
Cc1onc(-c2ccccc2)c1C(=O)NC(=S)NNC(=O)c1ccncc1	2	8	-36*	3.5*	-11*	-9	38	-4.6	-5	0.2
CN(C(=O)c1ccccc1OC1CCN(S(C)(=O)=O)CC1)C1CCOC1 (stereo unspecified)	4	10	25	24	4.6	-1	-7	-2.3	-1	-0.9
CC(=O)Nc1ccc(/C(C)=N/NS(=O)(=O)c2ccccc2)cc1	-5	2	x	x	x	4	-7	-3.1	-5	0.7
Cc1nn(-c2ccccc2)c(N)c1N=Nc1cccc(S(=O)(=O)N2CCOCC2)c1	-3	-4	5	5	0.4	-4	-14	3.4	4	0.8
Cc1ccc(/C(N)=N/OC(=O)COc2ccccc2Cl)cc1	-4	-8	x	x	x	u	-4	1.9	3	-2.9
CN(C(=O)CSC1=Nc2ccccc2C2=NC(c3ccccc3)C(=O)N12)C1CCCCC1 (stereo unspecified)	-1	-8	x	x	x	20	x	-1.6	5	-0.5
COc1ccc(C(=O)Nc2ccc(C3(C#N)CCCC3)cc2)cc1	-4	2	8	9	-0.6	32	-2	2.7	7	-1.0
O=C(COc1ccc(F)cc1Cl)Nc1cccc(S(=O)(=O)N2CCCCCC2)c1	x	-6	0	11	-0.7	x	-2	0.6	-2	-0.5
O=C(CCN1C(=O)c2ccccc2S1(=O)=O)Nc1ccccc1O	17	-5	12	15	-1.5	-1	8	6.2	-3	0.0
